Bioassay records: PubChem, National Center for Advancing Translational Sciences (NCATS)
gsp ag: qHTS for Agonist of gsp, the Etiologic Mutation Responsible for Fibrous Dysplasia/McCune-Albright Syndrome: qHTS; gsp mutant cells, cAMP HTRF, 30 min; control for the full effect not named in the record; Potency, µM (highest dose often 76.9 µM), inactives show top-dose activation (cAMP increase), most hits filed as activators; 340,000 tested, 0.13% active; AID 624287, 2012; active = well fitted activation curve with a large enough effect; inconclusive = small, poorly fitted or top-dose-only effect, or another doubt; inactive = no such curve, though single readings can be large or run the other way; cell line not stated here;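 further: phosphodiesterase inhibitor Ro 20-1724 added with compounds to block cAMP breakdown; potency means the concentration at half of the fitted maximal effect; nearly all actives have a fitted effect of over 60% in size; about a fifth of the inactives were tested at one dose only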
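Cells stably selected in G418 were plated at 2000/well, grown 16-24 hr, then given compounds in DMSO with the PDE inhibitor […] (300 uM solution added) for 30 min at 37C; cAMP was read by HTRF.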
ClpP mod: qHTS Assay for Activators of ClpP; ATP-dependent Clp protease proteolytic subunit (Bacillus subtilis (strain 168)), P80244; purified B. subtilis ClpP, FRET peptide cleavage, 20 min; Potency, µM (top dose mostly 57.5 µM), for the others: at the top dose activity change, negative = active; 340,000 tested, 1.9% active; AID 651965, 2013; active = well fitted falling curve with a large enough effect; inconclusive = small, poorly fitted or top-dose-only effect; inactive = no such curve, though single readings can be large or run the other way; further: potency means the concentration at half of the fitted maximal effect; the source files actives as falling curves though it sought activators and does not explain the sign; nearly all actives have a fitted effect of over 65% in size; many hits overshoot -100%
Target sequence (P80244 whole entry, looked up): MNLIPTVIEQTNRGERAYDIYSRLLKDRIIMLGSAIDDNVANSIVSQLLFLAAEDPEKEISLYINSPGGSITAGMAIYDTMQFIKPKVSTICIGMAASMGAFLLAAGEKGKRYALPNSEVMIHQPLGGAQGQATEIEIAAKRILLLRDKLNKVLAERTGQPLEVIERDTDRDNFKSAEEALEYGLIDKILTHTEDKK
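Purified B. subtilis ClpP, 10 microg/mL final in Tris/HCl pH8 with KCl, BSA, glycerol and Tween-20, cleaved an Abz/nitrotyrosine-quenched decapeptide. Fluorescence (ex 320, em 430) was read at 0 and 20 min at room temperature. Delta was normalized to 5.8 microM ADEP and DMSO/no-enzyme controls.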
Menin MLL FP FL: qHTS Assay for Inhibitors Targeting the Menin-MLL Interaction in MLL Related Leukemias: Competition With Fluorescein Labeled MLL-derived Peptide; Fluorescence polarization, fluorescein-MLL peptide displacement from menin; FP activity change, % at 61.4 µM; 290,000 tested, under 10 active; AID 1766, 2009; inconclusive = falling polarisation curve, or a change in total fluorescence; inactive = total fluorescence flat and polarisation flat or rising; no compound was filed as active; the % refers to the polarisation; negative = inhibition;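 further: % of control where 0% means no effect; inhibitors lower the polarisation; unlabelled MLL peptide was the positive control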
gsp antagonist: qHTS for Antagonists of gsp, the Etiologic Mutation Responsible for Fibrous Dysplasia/McCune-Albright Syndrome: qHTS; gsp-mutant cells, cAMP HTRF, 30 min; control for the full effect not named in the record; Potency, µM (highest dose often 76.9 µM), for the others: top-dose activity change, negative = inhibition, actives largely listed as inhibitors; 340,000 tested, 0.4% active; active = falling curve of any shape with a large fitted effect; inconclusive = falling curve, mostly with a smaller effect; inactive = flat or rising curve; cell line not stated here;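 further: intracellular cAMP measured with PDE inhibitor Ro 20-1724 present during compound exposure; potency means the concentration at half of the fitted maximal effect; on the % scale 0 is the no-effect control and ±100 the full control effect; nearly all actives have a fitted effect of over 65% in size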
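HTRF cAMP read-out (cAMP-d2 plus anti-cAMP antibody-K in lysis buffer, 30 min RT). Before lysis, cells are exposed to compounds with […] for 30 min at 37C in DPBS containing Ca/Mg, BSA and Tween 20.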
Sfp inh: qHTS Assay for Inhibitors of Bacillus subtilis Sfp phosphopantetheinyl transferase (PPTase); Biochemical Sfp PPTase activity, qHTS; 310,000 tested, 3.5% active; Potency, µM, without a hit: max response, negative = inhibition, hits mostly inhibitors; active means well fitted inhibition curve with a large enough effect; inconclusive means small, poorly fitted or top-dose-only effect, or another doubt; inactive means no such curve, though single readings can be large or run the other way;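 further: the enzyme is Sfp with the accession as filed and its product quenches rhodamine fluorescence; potency means the concentration at half of the fitted maximal effect; 0% = enzyme reaction without inhibitor and -100% = no enzyme wells; top concentration of the series not given in the record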
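Fluorescence-quenching assay: 15 nM Sfp-PPTase preincubated 15 min at room temperature with compound, then 5 uM rhodamine-CoA and 12.5 uM BHQ-2-labelled YbbR peptide added. Fluorescence (ex 525/em 598 nm) read at start and after 30 min; difference gives rate.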
TRPML1 inh: qHTS for Inhibitors of the Human Mucolipin Transient Receptor Potential 1 (TRPML1). Mucolipin-1 (Homo sapiens), Q9GZU1. activity change, negative = inhibition, % (concentration not given with the values). AID 624415, 2012. TRPML1-inducible cells, Ca2+ dye fluorescence, FDSS; stronger effect = lower value; inhibition of EC80 agonist-evoked calcium signal. 390,000 tested, 0.02% active; in the data active means activity change below about -50%; inconclusive means about -30% to -50%; inactive means above about -30%;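 further: stimulus is agonist 54-4 at its EC80 concentration; on the % scale 0 is the no-effect control and ±100 the full control effect; compound concentration not given in the record; the text of the record puts the active cut at -80%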
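Calcium fluorescence in TRPML1-DL cells induced overnight with Tet: a 110 s read after compound pin addition, then a 110 s antagonist read after challenge with 54-4 at 4 uM final (EC80).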
TRPV1 PAM: HTS Assay for Compounds that Act as Potentiators of the Vanilloid Receptor 1; TRPV1-expressing cells, Fluo-8 calcium influx, capsaicin EC20 potentiation; host cell line not named in the record; control for the full effect not named in the record; potentiation, % at 8.33 µM; 320,000 tested, 0.02% active; AID 540277, 2011; active means potentiation above 80%; inconclusive means 30% to 80%; inactive means below 30%; further: 0% is about no effect
Target sequence (Q8NER1 whole entry, looked up): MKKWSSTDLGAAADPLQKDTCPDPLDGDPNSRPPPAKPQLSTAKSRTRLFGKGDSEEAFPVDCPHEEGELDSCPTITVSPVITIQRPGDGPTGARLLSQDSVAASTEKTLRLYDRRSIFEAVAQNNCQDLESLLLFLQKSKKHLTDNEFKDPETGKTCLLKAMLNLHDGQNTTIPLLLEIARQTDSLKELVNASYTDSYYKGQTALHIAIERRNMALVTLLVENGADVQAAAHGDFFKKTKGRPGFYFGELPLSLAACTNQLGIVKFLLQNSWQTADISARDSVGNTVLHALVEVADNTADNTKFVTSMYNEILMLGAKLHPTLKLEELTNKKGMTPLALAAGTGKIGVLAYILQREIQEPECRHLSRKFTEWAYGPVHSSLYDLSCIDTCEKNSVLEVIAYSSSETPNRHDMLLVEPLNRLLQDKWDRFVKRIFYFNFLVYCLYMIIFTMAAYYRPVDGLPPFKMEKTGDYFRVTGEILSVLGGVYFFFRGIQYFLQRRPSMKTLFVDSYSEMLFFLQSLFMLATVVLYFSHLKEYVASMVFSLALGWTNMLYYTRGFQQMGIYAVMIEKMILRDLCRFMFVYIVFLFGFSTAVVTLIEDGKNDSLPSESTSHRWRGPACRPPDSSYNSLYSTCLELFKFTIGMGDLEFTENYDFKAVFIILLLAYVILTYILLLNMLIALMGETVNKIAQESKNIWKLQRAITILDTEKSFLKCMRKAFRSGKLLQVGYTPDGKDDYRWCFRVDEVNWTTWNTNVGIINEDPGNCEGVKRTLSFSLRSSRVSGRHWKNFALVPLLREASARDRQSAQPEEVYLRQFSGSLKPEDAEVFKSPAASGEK
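Cells expressing TRPV1 were dye-loaded with Fluo-8 and read kinetically: 10 s baseline, 3 min after compound (agonist portion), then 2 min after EC20 capsaicin (allosteric enhancer portion). Calcium-bound dye fluorescence at 480/520 nm.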
The depositor's hits bear a star; ? = inconclusive; nt = no result given; & = joins results of further samples; [ ] = remark or other dose.

SMILES	gsp ag	ClpP mod	Menin MLL FP FL	gsp antagonist	Sfp inh	TRPML1 inh	TRPV1 PAM
CCOc1ccc(-c2cc(CCCC(=O)NCCc3ccccc3)no2)cc1	-52%[inhibitor]	0.8%	-0.5	-1%	1%	7	-14
CCOc1c(Cl)cc(CNC(C)(C)CC(C)(C)C)cc1OC	25%	-4.2%	5.2	11%	4%	-15	2
c1ccc(CN=C(NCc2ccccc2)NCc2ccccc2)cc1	0%	nt	nt	5%	nt	-3	nt
CC1CCCC(NC(=O)COC(=O)c2cc(=O)[nH]c3ccccc23)C1C (centres undefined)	9%	-1.7%	nt	-7%	nt	5	nt
O=c1c2ccccc2nc(SCc2nnc(-c3ccccc3Br)o2)n1-c1ccccc1	-51%[inhibitor]	-3.2%	3.0	21%	9%	58	6
CCCCNC(=O)c1ccc(CS(=O)(=O)Cc2ccccc2F)o1	15%	0.5%	-1.5	-1%	15%	4	2
CCOc1ccc(CCNC(=O)CSc2nnnn2C)cc1OCC	?	nt	2.8	7%	-9%	-12	-3
Cc1ccc(CNC(=O)C2CCC(=O)N(CC3CCCCC3)C2)o1 (centres undefined)	-26%	-2.2%	-0.3	-3%	-24%	9	-4
O=C(Cc1ccccc1)N[C@@H](Cc1ccccc1)c1nc2ccccc2[nH]1	-14%	-7.8%	4.6	5%	14%	4	-17
CCOC(=O)C1CCCN(Cc2ccccc2C)C1 (centres undefined)	0%	0.0%	1.3	0%	3%	-17	-8
Cc1cc(C)c(S(=O)(=O)N2CCCC(C(=O)NC3CCCC3)C2)c(C)c1 (centres undefined)	-1%[15.4 µM]	nt	-0.5	nt	2%	1	13
O=C(CN(C1CCCCC1)S(=O)(=O)c1ccccc1)NCc1cccnc1	18%	1.0%	0.2	4%	5%	0	1
COCCN1CC(C(=O)NCc2ncccc2C)CCC1=O (centres undefined)	?	1.9%	nt	-5%	-7%	13	-2
CCCC(CCC)C(=O)Nc1ccc2c(c1)N(C(=O)CCN1CCN(C)CC1)c1ccccc1CC2	11%[15.4 µM]	nt	-2.0	nt	-9%	12	1
COc1ccccc1N(C)S(=O)(=O)c1ccc(C(=O)Nc2nccs2)cc1	13%	-0.1%	nt	-11%	nt	-5	-40
O=C(O)CCn1nnc(-c2cccs2)n1	-36%[inhibitor]	-2.0%	1.4	-1%	-11%	32	-18
O=C(C[C@H]1C/C=C\CC[C@H](Cc2ccc(F)cc2)C(=O)OC[C@@H]2CCCN2C1=O)N[C@H](CO)Cc1ccccc1	8%	1.3%	nt	-14%	nt	-11	nt
c1ccc(-c2cc(-c3nc(-c4ccccn4)no3)c3ccccc3n2)cc1	9%	-4.2%	nt	-1%	nt	-10	nt
O=C(N/N=C/c1ccc(-c2ccc(Br)cc2)o1)c1ccc2c(c1)OCO2	-24%[15.4 µM]	nt	?	?	18%	-4	-3
O=C(CC(c1ccccc1)c1ccccc1)Nc1ccc(O)cc1	4%[15.4 µM]	0.4%	1.1	-17%	5%	4	-29

Full records, quoted from the list. Screens in order: gsp ag | ClpP mod | Menin MLL FP FL | gsp antagonist | Sfp inh | TRPML1 inh | TRPV1 PAM
Profile of O=C(O)CCn1nnc(-c2cccs2)n1 : -36%[inhibitor] | -2.0% | 1.4 | -1% | -11% | 32 | -18
Profile of CCOc1ccc(-c2cc(CCCC(=O)NCCc3ccccc3)no2)cc1 : -52%[inhibitor] | 0.8% | -0.5 | -1% | 1% | 7 | -14

Next section.
SMILES	gsp ag	ClpP mod	Menin MLL FP FL	gsp antagonist	Sfp inh	TRPML1 inh	TRPV1 PAM
CC(C)(CN1CCN(C(c2ccccc2)c2ccccc2)CC1)NS(=O)(=O)c1ccccc1	2%[15.4 µM]	nt	5.1	-2%	11%	58	-3
O=C(Cn1ncc2ccccc2c1=O)Nc1cccc(C(F)(F)F)c1	44%	-2.7%	nt	nt	nt	4	nt
CC(=Nc1ccccc1)C1=C(O)COC1=O	-18%	1.3%	0.6	-2%	2%	1	-4
Cc1ccc(S(=O)(=O)N(C)C)cc1-n1c(SCC(=O)Nc2ccc(F)cc2Cl)nc2ccccc2c1=O	-6%	-11%	-1.7	-12%	4%	0	6
COc1cccc(/C=N/N2CCN(C3c4ccccc4-c4ccccc43)CC2)c1O	-16%	-0.1%	-3.9	-7%	7%	-7	7
Cc1cc2c(cc1C)CSC(c1ccc(O)cc1)SC2	26%	-1.2%	7.3	-3%	2%	4	12
CN1CCN(C(c2cccnc2)c2ccc3cccnc3c2O)CC1 (centres undefined)	-2%	-1.0%	4.7	3%	2.8µM*	-3	6
CCOc1cc(C2CC(=O)NC(SCC)=C2C#N)ccc1O (centres undefined)	-7%	-1.4%	-2.8	2%	4%	-18	8
Cc1ccn2cc(-c3cnoc3C)nc2c1	-34%[inhibitor]	14µM*	-3.8	-5%	4%	-3	17
CCOC(=O)CCCC(=O)N1CCOCCOCCOCC1	-1%[15.4 µM]	0.3%	-1.1	13%	-8%	4	8
O=C(CC1NCCNC1=O)Nc1cc(Cl)cc(Cl)c1 (centres undefined)	-6%[15.4 µM]	-1.2%	7.8	5%	14%	0	0
CCc1ccc(NC(=O)CS(=O)CC(=O)NCCCc2ccccc2)cc1 (centres undefined)	-43%[inhibitor]	-8.4%	3.2	6%	15%	19	4
Nc1cc(Cl)ccc1Nc1ccncc1	-26%	-1.7%	1.7	10%	6%	1	1
CCOC(=O)C1CCN(S(=O)(=O)c2ccc(Cl)nc2)CC1	-24%	-1.1%	0.1	1%	10%	-2	-18
CCn1c(COc2ccccc2C)nnc1SCC(=O)N1CCN(c2ccccc2)CC1	-12%	0.2%	-2.1	-24%	3%	3	-3
COc1ccc(-c2csc(NC(=S)NC(=O)c3ccco3)n2)cc1Br	-19%	0.8%	nt	11%	1%	-22	16
O=C(NCC1CCCO1)c1cc2cc(Cl)ccc2[nH]1 (centres undefined)	-20%[15.4 µM]	?	0.8	0%	4%	-4	-16
CCC(NC(=O)NCc1ccc2c(c1)OCO2)(C(F)(F)F)C(F)(F)F	2%	0.2%	0.2	12%	16%	-10	-5
CC(C)(C)N(Cc1cc2ccccc2[nH]c1=O)C(=O)C1CCCCC1	13%	-28%	1.7	12%	2%	15	-19
O=C(c1ccco1)N1CCC(c2nc3ccccc3[nH]2)CC1	-10%[15.4 µM]	-0.9%	nt	-12%	nt	-3	-7
CC(NS(C)(=O)=O)C(c1cccs1)N1CCN(C)CC1 (centres undefined)	11%	-2.0%	-1.2	6%	0%	8	-9
COc1c(F)cccc1C1=CC(=O)C[C@H](c2ccc3c(c2)OCO3)C1	2%	1.1%	nt	-2%	nt	-2	-7
COc1cccc(NC(=O)N(C)C[C@@H]2OCc3cn(nn3)CCCC(=O)N([C@H](C)CO)C[C@H]2C)c1	?	-0.1%	nt	nt	nt	2	nt
Fc1ccc(C2=Nc3cccc4cccc(c34)N2)cc1	-39%[inhibitor]	-1.2%	?	1%	1%	-4	1
CC(=O)c1c(C)[nH]c(C(=O)Nc2ccc(C)c(S(=O)(=O)N(C)C)c2)c1C	-3%[15.4 µM]	0.5%	1.0	-17%	-17%	8	?
Cc1ccc(NC(=S)N(CCN(C)C)C(C)c2cccnc2)c(C)c1 (centres undefined)	-17%[15.4 µM]	nt	-3.6	7%	3%	-3	3
CC(C)C[C@@H](CN=[N+]=[N-])N1CCN(CC(C)C)CCC1=O	-14%	1.2%&-0.6%	2.3	4%	7%	63	-13
Cc1nnc(SCC(=O)NCc2ccccc2)n1-c1ccccc1	-4%	2.4%	2.4	9%	12%	0	1
CCOC(=O)C1=c2s/c(=C\c3cccnc3)c(=O)n2C(N)=C(C(=O)OC)C1c1cccnc1 (centres undefined)	-4%	0.1%	1.7	-9%	-4%	6	27
CC(O)[C@H]1CN=C(N)N1CC1CCCCC1 (some centres undefined)	6%	-0.3%	nt	5%	nt	22	nt
Cn1c(=O)c2c(nc(CN3CCCCC3)n2CCc2ccccc2)n(C)c1=O	11%	-6.5%	-0.3	6%	18%	5	1
OCC1(Cc2ccccc2F)CCCN(Cc2c(F)ccc(F)c2F)C1 (centres undefined)	0%[15.4 µM]	0.0%	-1.2	-7%	30%[activator]	2	5
COC(=O)c1c(NC(=O)CN2CCN(S(=O)(=O)c3ccccc3[N+](=O)[O-])CC2)sc2c1CCC(C)C2 (centres undefined)	7%	0.9%	0.6	-13%	21%	-14	-2
Cc1cccc(N=CC=C2OC(C)(C)C(C)(C)O2)c1	-1%[15.4 µM]	?	nt	6%	6%	15	-19
Cc1ccc(N(C(=O)Cc2c[nH]c3ccccc23)C(C(=O)NC2CCCCC2)c2ccco2)cc1 (centres undefined)	-25%	1.6%	3.0	-22%	17%	12	4
CCOc1ccc(C2C(C(=O)O)c3ccccc3C(=O)N2CCN2CCOCC2)cc1 (centres undefined)	4%	-1.3%	5.0	6%	4%	14	9
CC(=O)NC(Cc1ccc(F)cc1)C(=O)NC1CCN(c2nnnn2-c2ccccc2)CC1 (centres undefined)	-54%[inhibitor]	2.8%	-1.3	0%	15%	-7	0
COc1cc(OC)c(C2=NOC(C(=O)N3CCN(C(=O)c4ccco4)CC3)C2)cc1Cl (centres undefined)	-2%[15.4 µM]	-0.3%	-2.7	-1%	6%	6	7
CC(C)N(C(=O)[C@H]1C[C@H](CC(=O)NCc2ccco2)C(=O)N2CCc3c([nH]c4ccc(Cl)cc34)[C@]12C)C(C)C	nt	0.9%	nt	-6%	nt	-13	nt
COc1ccc(-n2nnnc2SCC(=O)c2ccc3c(c2)OCCO3)c(OC)c1	-15%	-1.2%	-0.6	9%	-7%	-3	-3
